FGF22 binding – shifts melting point of recombinant human FGF22. Q9HCT0. recombinant FGF22 thermal shift, SYPRO orange fluorescence; percent of sucrose octasulfate shift, DMSO zero. calls only at 9.99 µM. 340,000 tested, 1.5% active. AID 651658;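 active = melting point raised past a set limit in the mean and every replicate; three in four hits are not shown here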
LANA-H2B inh – blocks KSHV LANA binding to histone H2A/H2B; Q9QR71; cell-free LANA-H2A/H2B peptide, fluorescence polarization; inhibition, % (concentration not given with the values); 320,000 tested, 0.6% active; in the data active = inhibition mostly above about 10%, no sharp cut-off; inactive = mostly below about 6.7%;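 note: stock transfer was 7.5 nL into about 10 µL; 0% = median of vehicle wells and 100% = median of positive control wells; one replicate is shown; the record names a cut of 25% in any replicate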
Target sequence (Q9QR71 whole entry, looked up): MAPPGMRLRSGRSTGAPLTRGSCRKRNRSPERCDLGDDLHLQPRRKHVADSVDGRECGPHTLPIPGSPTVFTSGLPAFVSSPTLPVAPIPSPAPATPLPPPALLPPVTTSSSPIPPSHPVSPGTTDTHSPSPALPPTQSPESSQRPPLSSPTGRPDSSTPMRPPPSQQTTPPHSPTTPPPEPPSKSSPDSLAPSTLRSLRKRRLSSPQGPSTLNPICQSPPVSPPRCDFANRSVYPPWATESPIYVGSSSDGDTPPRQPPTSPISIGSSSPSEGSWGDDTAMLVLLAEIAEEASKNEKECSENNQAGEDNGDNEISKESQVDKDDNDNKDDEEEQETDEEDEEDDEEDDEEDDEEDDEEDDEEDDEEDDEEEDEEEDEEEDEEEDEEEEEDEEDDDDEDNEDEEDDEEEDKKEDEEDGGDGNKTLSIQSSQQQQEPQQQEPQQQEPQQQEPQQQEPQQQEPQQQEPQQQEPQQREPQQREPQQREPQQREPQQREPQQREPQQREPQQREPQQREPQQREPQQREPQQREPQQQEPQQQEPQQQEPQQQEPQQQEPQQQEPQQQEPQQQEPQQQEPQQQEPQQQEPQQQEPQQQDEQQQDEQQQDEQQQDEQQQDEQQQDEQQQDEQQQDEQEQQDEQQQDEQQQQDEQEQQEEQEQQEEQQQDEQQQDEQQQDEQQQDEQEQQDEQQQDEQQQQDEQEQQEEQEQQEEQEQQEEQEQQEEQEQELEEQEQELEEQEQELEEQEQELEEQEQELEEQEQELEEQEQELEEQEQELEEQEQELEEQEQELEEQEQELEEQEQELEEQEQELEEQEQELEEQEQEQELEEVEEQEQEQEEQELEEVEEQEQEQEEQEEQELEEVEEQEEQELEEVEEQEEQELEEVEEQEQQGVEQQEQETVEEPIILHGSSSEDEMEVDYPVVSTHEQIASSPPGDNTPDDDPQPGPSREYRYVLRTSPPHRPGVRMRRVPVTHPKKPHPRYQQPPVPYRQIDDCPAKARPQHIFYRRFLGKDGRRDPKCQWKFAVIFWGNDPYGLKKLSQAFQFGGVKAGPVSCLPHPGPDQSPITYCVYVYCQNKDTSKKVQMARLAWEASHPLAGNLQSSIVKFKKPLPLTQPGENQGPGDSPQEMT
B2AR ag – human beta-2 adrenergic receptor agonism by FAP. 340,000 tested, 0.43% active. P07550. response, % (test concentration not listed). Am2.2-beta2AR cells, FAP receptor internalization, flow cytometry; reference of the scale not given here. AID 504454;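 active = response above a set limit, near 3 SD of response in nonfluorescent compounds, cut at about 42% in these data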;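 note: stock transfer was 100 nL into about 11 µL; a reference agonist was the positive control; negative values mostly stem from fluorescent compounds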
HNF4A DNA FP – change in binding of human HNF4 alpha to DNA | P41235 | 360,000 tested, 0.3% active | HNF4a-FITC DNA binding, fluorescence polarization, 1 h | AID 1224865 | activity change, % at 10 µM; in the data active = activity change above about 30%, passing the limit was not always enough;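 note: controls were the assay level and a saturating level of protein; the project sought stronger binding though the title names inhibitors; some compounds called inactive have numbers as strong as hits; positive values seem to mean higher polarization but the record does not say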
Ecoli growth – inhibitors of Escherichia coli growth. OD600, 23 h; active compounds read low. OD600 absorbance (no concentration beside the values). 330,000 tested, 0.21% active. AID 1053175;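 active = OD600 absorbance below the run mean of sample wells minus 3.6 SD, in any replicate, cut at about 0.56 in these data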;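 note: stock transfer was 300 nL into about 60 µL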
ALR H2O2 inh – human ALR oxidase inhibition via reduced H2O2; purified ALR, DTT oxidation, H2O2 HRP-luminol luminescence; inhibition, % (no concentration beside the values); 290,000 tested, 3.8% active; AID 485317;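 active = mean and each replicate at 75% or more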;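 note: stock transfer was 7.5 nL into about 7.5 µL; 0% = neutral wells and 100% = wells with inactivated enzyme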
UCH37 DUB inh – human UCH37 deubiquitinating enzyme inhibition; purified proteasome/UCH37, Ub-AMC cleavage fluorescence; 330,000 tested, 0.33% active; Q9Y5K5; inhibition, % (no concentration beside the values); AID 588478;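 active = mean of two replicates above 20%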;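 note: 0% = compound-free wells with enzyme and 100% = wells lacking proteasome; stock transfer was 100 nL into about 20 µL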
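Signal – fluorescence, ex 355 nm, em 460 nm · System – Proteasome-bound UCH37 · Input – 0.15 nM proteasome as dispensed · Timing – 30 min preincubation with enzyme, 25 min cleavage at room temperature · Read-out basis – percent inhibition of cleavage signal versus uninhibited and no-proteasome wells · Medium – Tris-HCl pH 7.4 with ATP-MgCl2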
The depositor's hits bear a star; i = inactive; x = no result given; & = joins results of further samples. An excerpt. The share of hits here may be higher or lower than overall.

structure	FGF22 binding	LANA-H2B inh	B2AR ag	HNF4A DNA FP	Ecoli growth	ALR H2O2 inh	UCH37 DUB inh
O=C1NCCN(Cc2ccc(F)cc2)C1CC(=O)N1CC=C(c2ccccc2)CC1 (stereo unspecified)	i	0.5	5	-2.1	0.62	-13	-4.4
CCOC(=O)c1cn(Cc2cccc(Cl)c2)nn1	i	x	11	1.5	0.65	x	5.2
CCOC(=O)C1=C(C)N(c2ccccc2)C(=O)/C1=C\c1ccco1	x	2.7	-5	2.2	0.69	-3	3.5
O=C(Nc1ccccc1OC(F)F)C1CCCN1C(=O)c1cccs1 (stereo unspecified)	i	3.3	4	1.9	0.72	-1	3.5
Cc1ccc(NC(=O)CSCc2c(C)noc2C)cc1C	x	0.8	6	-1.1	0.72	-21	0.5
CC1(C)Cc2c(sc3nc(SCC(=O)N4CCOCC4)nc(N)c23)CO1	x	-2.9	-3	-0.7	0.72	-10	-12
CCC(=O)Nc1nnc(SCC(=O)Nc2ccc(F)cc2)s1	x	-1.0	-6	0.5	0.64	4	3.8
COC(=O)c1scc(S(=O)(=O)C(C)C)c1N/N=C(\C#N)C(=O)c1ccc(Cl)cc1	i	1.4	3	3.0	x	6	x
CCCn1cc(S(=O)(=O)c2ccccc2)c(=O)c2cc(OC)c(OC)cc21	i	5.8	16	-2.3	0.69	-6	0.5
O=C(O)c1ccccc1C(=O)Nc1cc(C(F)(F)F)ccc1N1CCCC1	i	5.5	-2	-0.4	0.63	x	1.6
CCN(CC)CC#CC(C)OCOCC#CCOC (stereo unspecified)	x	2.0	-1	-1.4	0.71	-2	2.2
C=CCc1cccc2cc(C(=O)NCc3ccc(C(=O)OCC)o3)c(=O)oc12	x	2.4	12	-1.6	0.67	2	-2.7
Cc1ccc(Cn2ccc(NC(=O)c3cc(-c4ccc(Br)cc4)on3)n2)cc1	x	-6.0	-10	-3.2	0.67	x	2.6
CCCc1ccc(OCC(O)CN2CCN(c3ccccc3)CC2)cc1 (stereo unspecified)	i	-1.7	-3&-5	0.4&0.6	0.63&0.66	6	6.0&1.5
O=C(NC1Cc2ccccc2C1)c1cc(COc2cccc(C(F)(F)F)c2)on1	i	x	0	2.1	0.68	-5	-0.5
O=C(CSc1nnc(CNC(=O)c2c(F)cccc2F)o1)NCC1CCCO1 (stereo unspecified)	i	1.7	1	-3.5	0.69	-11	2.5
CCOc1ccc(NC(=O)COC(=O)COc2cccc3c2OC(C)(C)C3)cc1	i	-2.7	-2	-0.1	0.69	22	2.6
COc1ccccc1NC(=O)C/C(C)=N/NC(=O)c1ccccn1	i	1.4	-4	4.0	x	x	x
O=[N+]([O-])c1cc([N+](=O)[O-])c(Oc2cc(F)cc(F)c2)cc1NN1CCCCC1	i	0.0	2	2.5	0.74	4	4.3
Clc1ccc(-c2ccnc(Oc3cc(Cl)ccc3Cl)n2)cc1	x	-1.4	10	-3.2	0.74	1	-1.3
Fc1cccc(CSc2ncnc3c2oc2ccccc23)c1	x	0.6	8	-0.5	0.69	0	5.7
COC(=O)c1ccc(CN2CCN(CC=C(C)C)C(CCO)C2)cc1 (stereo unspecified)	x	-0.9	7	1.1	0.69	-1	2.1
CCCCC(=O)Nc1ccc(NC(=S)NC(=O)CC)cc1OC	x	-0.6	4	-1.2	0.69	-6	3.4
CC(NC(=O)CN(C)S(=O)(=O)c1ccc(F)cc1)C1CC2CCC1C2 (stereo unspecified)	i	-3.5	-6	1.9	0.66	x	1.4
COCc1cc(C(C)=O)ccc1OC	x	6.3	-1	-4.2	0.69	-18	3.1
CCC1(C)Cc2c(sc3nnn(Cc4ccccc4Cl)c(=O)c23)CO1 (stereo unspecified)	x	-0.6	4	7.0	0.78	-4	1.2
COc1cccc(CN(C)C(=O)c2csc3c2CCCC3)c1OC	i	6.5	0	3.4	0.66	-3	1.2
CC1CCN(C(=O)c2[nH]cnc2C(=O)N[C@@H](C)C(=O)OCc2ccccc2)CC1	i	14	-12	-1.6	x	-2	-0.5
CN(C)CCN(Cc1ccccc1)S(=O)(=O)c1ccc(-c2ccc(=O)[nH]n2)s1	i	-2.7	4	2.2	0.69	-4	5.2
Cc1ccc(C(=O)NC(C)c2nnc(SCC(=O)NC3CCCC3)n2C)cc1 (stereo unspecified)	i	6.2	-6	0.2	0.7	-26	-1.4
CC(C)(C)Nc1nc(Cl)nc(Nc2ccccc2)n1	i	-9.1	13	-0.4	0.68	98*	4.7
NC(=O)N/N=C/c1c(Sc2nnnn2-c2ccccc2)nc2ccccn2c1=O	i	-0.2	0	4.2	x	46	x
Cc1ccc(C)n1NC(=O)c1ccccc1Cl	x	-2.0	-11	2.4	0.8	2	5.9
CCOc1ncccc1C(=O)Nc1cc2c(cc1Br)OCCO2	i	-1.9	-1	4.2	0.63	x	-1.6
O=Cc1c(N2CCCCC2)nc2ccccn2c1=O	i	-4.1	-8	2.6	0.65	-2	5.3
O=S(=O)(NCc1ccccn1)c1ccc2ccccc2c1	i	-1.3	3	-2.2	0.67	-2	1.5
O=C(CSc1nc(-c2ccco2)cc(C(F)(F)F)n1)N1CCCc2ccccc21	x	1.5	-5	0.8	0.72	-19	0.2
Cn1c(N)c(S(=O)(=O)NCc2ccccc2)c(=O)n(C)c1=O	i	-1.4	-2	1.6	0.68	-3	4.7
N#C/C(=C\c1ccccc1)c1ccccn1	x	-0.4	-5	1.3	0.63	-14	-0.8
CC(C)(Oc1ccc(Cl)cc1)C(=O)OCn1nnc2ccccc2c1=O	i	-2.4	7	-3.0	0.66	5	2.3
Cc1ccc(NC(=O)c2sc3ncnc(N4CCN(c5ccccn5)CC4)c3c2C)c(C)c1	i	0.5	-5	-2.1	x	-4	x
COc1ccc2c(c1OC)C(=O)N1N=C(c3ccccc3)CC21 (stereo unspecified)	x	-2.0	-29	-0.5	0.69	1	3.0
CN(C)/N=C/c1cc(Cl)cc([N+](=O)[O-])c1O	i	6.8	10	0.7	x	36	x
CC(C)OCCCNC(=O)C(C)Oc1ccccc1 (stereo unspecified)	i	-3.1	-2	0.6	0.74	3	-1.8
Cc1cc(N2CCC(C)CC2)c(F)cc1[N+](=O)[O-]	x	-2.3	0	3.7	0.73	-1	0.2
O=C(Nc1ccc(Br)cc1)N1CCc2ccccc2C1	i	-1.3	5	-0.5	0.62	6	3.6
O=C(CN1C(=O)NC(CCc2ccccc2)C1=O)NC1CC1 (stereo unspecified)	i	0.0	13	2.0	0.64	-16	-1.6
CCOC(=O)c1ccccc1NC(=O)COC	x	-0.9	3	-0.1	0.73	x	1.5
COc1ccc(OC)c(/C=N/NC(=O)C(=O)NCc2cccnc2)c1	i	-0.3	12	1.9	x	-3	x
CCOC(=O)C1(Cc2ccc(O)cc2)NC(c2ccccc2F)C2C(=O)N(C)C(=O)C21 (stereo unspecified)	x	0.7	0	-3.1	0.71	x	0.8

Look-ups from above:
In B2AR ag, N#C/C(=C\c1ccccc1)c1ccccn1 is entered as -5
In HNF4A DNA FP, CC(C)(Oc1ccc(Cl)cc1)C(=O)OCn1nnc2ccccc2c1=O is entered as -3.0
In UCH37 DUB inh, Cn1c(N)c(S(=O)(=O)NCc2ccccc2)c(=O)n(C)c1=O is entered as 4.7

Part of the list above, field by field:
Cn1c(N)c(S(=O)(=O)NCc2ccccc2)c(=O)n(C)c1=O
  FGF22 binding: i	LANA-H2B inh: -1.4	B2AR ag: -2	HNF4A DNA FP: 1.6	Ecoli growth: 0.68	ALR H2O2 inh: -3	UCH37 DUB inh: 4.7
N#C/C(=C\c1ccccc1)c1ccccn1
  FGF22 binding: x	LANA-H2B inh: -0.4	B2AR ag: -5	HNF4A DNA FP: 1.3	Ecoli growth: 0.63	ALR H2O2 inh: -14	UCH37 DUB inh: -0.8
CC(C)(Oc1ccc(Cl)cc1)C(=O)OCn1nnc2ccccc2c1=O
  FGF22 binding: i	LANA-H2B inh: -2.4	B2AR ag: 7	HNF4A DNA FP: -3.0	Ecoli growth: 0.66	ALR H2O2 inh: 5	UCH37 DUB inh: 2.3

Next section
structure	FGF22 binding	LANA-H2B inh	B2AR ag	HNF4A DNA FP	Ecoli growth	ALR H2O2 inh	UCH37 DUB inh
O=C(NCCCCCCNC(=O)OCc1ccccc1)OCc1ccccc1	i	x	-5	2.4	0.67	x	0.5
CCOC(=O)CSc1nc(C2CC2)cc(-c2ccc(F)cc2)c1C#N	x	4.5	6	-1.0	0.73	2	1.7
CCN(C(=O)c1cccs1)C1CCS(=O)(=O)C1 (stereo unspecified)	i	x	1	2.5	0.64	x	-1.1
O=C1c2ccccc2CN1c1ccccc1	i	0.9	-8	0.4	0.69	-2	1.6
COc1ccc(C2=NO[C@@H]3C(=O)N(Cc4ccccc4)C(=O)[C@H]23)c(OC)c1	i	0.6	7	-4.4	0.66	-22	3.8
Cn1cc(Cl)c(C(=O)Nc2cnn(Cc3ccc(F)cc3)c2)n1	i	-2.0	-1	0.3	0.65	-5	3.6
CC(=O)Nc1ccc(Nc2ccc(S(=O)(=O)C(F)(F)F)cc2[N+](=O)[O-])cc1	i	10.0	-25	-0.6	0.68	-9	3.0
CCN1CCN(CC(O)COc2ccc(Cl)cc2)CC1 (stereo unspecified)	x	2.1	4	-0.4	x	-2	x
O=C(NCCc1ccccc1)C1CC1	i	-2.8	0	0.1	0.63	3	1.0
O=C(Cn1nc(-c2ccccc2)c2ccccc2c1=O)Nc1cccnc1	x	0.3	-14	0.2	0.68	-15	4.1
COc1cccc(-n2c(SCC(=O)NCC3CCCO3)nc3c(c2=O)SCC3)c1 (stereo unspecified)	i	0.1	-1	3.9	0.71	8	11
c1ccc(CN2CCN(c3nc4ccccc4c4ccccc34)CC2)cc1	x	-1.3	2	2.1	0.68	-7	0.3
CCOC(=O)C1=C(C)NC(SCC(=O)O)=C(C#N)C1c1ccco1 (stereo unspecified)	x	-3.1	1	0.2	0.69	7	0.1
C(=C\c1ccco1)/c1ccc2ccccc2n1	i	-3.1	6	-31	0.63	46	-96
COc1ccc(C(CNC(=O)C(=O)NC2CCCCC2)N2CCN(C)CC2)cc1 (stereo unspecified)	i	-0.5	-8	-1.2	0.69	2	-3.8
COc1ccccc1NC(=O)CC(NC1CCCCC1)C(=O)O (stereo unspecified)	x	7.1	12	-2.8	0.67	-4	4.9

Compound activity as filed in PubChem BioAssay.
